Screening data deposited in PubChem BioAssay by Broad Institute.
UUG fidelity = alters start codon recognition fidelity in yeast | S. cerevisiae UUG-firefly luciferase reporter, luminescence/redox ratio | activity score, % at 18.7 µM | 0.13% of 350,000 active;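 active = replicate mean at a twofold rise or more, about +100% in these data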;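 also: firefly luciferase made from a UUG start codon reports start codon fidelity; reporter light over untreated wells divided by growth signal over untreated wells; some hits fall short of that in this replicate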
HIV Env fusion = blocks HIV Env-driven cell-cell fusion; HeLa-JRFL Env/CEM21 cell fusion, luciferase; inhibition, % at 12.3 µM; 1.1% of 360,000 active;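 active = mean replicate inhibition score of at least 50 and every replicate individually at or above 50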;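 also: 0% = plate neutral controls and 100% = maraviroc near 300 nM; one replicate is shown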
Starred values were filed as active, the others as inactive; & = joins results of further samples; [ ] = dose if it differs, or a comment. Not all compounds are listed (hit frequency here may not be typical).

HIV Env fusion	UUG fidelity	compound
14[16.7 µM]	10	C[C@H](CO)N1C[C@H](C)[C@@H](CN(C)C(=O)CCCN(C)C)OCCCC[C@H](C)Oc2ccc(NS(=O)(=O)c3cccs3)cc2C1=O
24[16.7 µM]	8	C[C@H](CO)N1C[C@H](C)[C@H](CN(C)CC2CC2)Oc2ccc(NC(=O)Cc3ccccc3)cc2C1=O
24[16.7 µM]	-3	C[C@H]1CCCCO[C@H](CN(C)C(=O)Nc2ccc(F)cc2)[C@@H](C)CN([C@@H](C)CO)C(=O)c2cc(NC(=O)CCCN(C)C)ccc2O1
-2[16.7 µM]	3	CO[C@H]1CN(C)C(=O)c2ccc(NC(=O)NC(C)C)cc2OC[C@@H](C)N(CC2CC2)C[C@@H]1C
-61[16.7 µM]	-2	CCCNC(=O)C[C@H]1C[C@@H]2c3cc(NS(=O)(=O)c4ccccc4)ccc3O[C@@H]2[C@H](CO)O1
9[16.7 µM]	-15	CCCC(=O)Nc1ccc2c(c1)C(=O)N(C)[C@H]1CC[C@@H](CC(=O)NCCc3ccncc3)O[C@@H]1CO2
5[16.7 µM]	-5	CCC(=O)N(C)C[C@H]1Oc2cc(-c3cccc(F)c3)ccc2S(=O)(=O)N([C@@H](C)CO)C[C@H]1C
-5[16.7 µM]	18	CCCC(=O)Nc1ccc2c(c1)C(=O)N(C)[C@@H]1CC[C@@H](CC(=O)NCc3ccccc3F)O[C@@H]1CO2
-11[16.7 µM]	-1	O=S(=O)(N[C@H]1CC[C@H](CCn2cc(-c3cccc(F)c3)nn2)O[C@H]1CO)c1ccc(Cl)cc1
20[16.7 µM]	-5	C[C@H]1CCCCO[C@@H](CN(C)S(=O)(=O)c2ccc(Cl)cc2)[C@@H](C)CN([C@@H](C)CO)C(=O)c2cc(N(C)C)ccc2O1
5[16.7 µM]	-10	CNC[C@H]1Oc2ccc(NC(=O)Cc3ccccc3)cc2CC(=O)N([C@@H](C)CO)C[C@@H]1C
23[16.7 µM]	-8	C[C@@H]1CN([C@@H](C)CO)C(=O)c2cc(/C=C/c3ccccc3)cnc2O[C@@H]1CN(C)C(=O)Nc1ccccc1F
14[16.7 µM]	35	CCCC#Cc1cnc2c(c1)C(=O)N([C@H](C)CO)C[C@@H](C)[C@H](CN(C)C(=O)Nc1cc(F)ccc1F)O2
5[16.7 µM]	-1	Cc1ccc(S(=O)(=O)N(C)C[C@H]2Oc3ccc(NC(=O)Nc4cccc5ccccc45)cc3CC(=O)N([C@H](C)CO)C[C@H]2C)cc1
-1[16.7 µM]	3	C[C@H](CO)N1C[C@H](C)[C@H](CN(C)CC2CCOCC2)Oc2ncc(-c3cncnc3)cc2C1=O
-3[16.7 µM]	1	C[C@@H]1CCCCO[C@@H](CN(C)Cc2ccc(Cl)c(Cl)c2)[C@@H](C)CN([C@H](C)CO)C(=O)c2cc(NS(=O)(=O)c3ccc(Cl)cc3)ccc2O1
30[16.7 µM]	-10	Cc1ccc(S(=O)(=O)N(C)C[C@@H]2Oc3ccc(NC(=O)C4CCCCC4)cc3C(=O)N([C@H](C)CO)C[C@H]2C)cc1
13[16.7 µM]	9	C[C@@H]1CN([C@@H](C)CO)C(=O)c2cc(C3=CCCCC3)cnc2O[C@H]1CN(C)S(=O)(=O)c1cn(C)cn1
2[16.7 µM]	-7	C[C@H]1CN([C@@H](C)CO)C(=O)Cc2cc(NC(=O)Nc3cccc4ccccc34)ccc2O[C@@H]1CN(C)CC1CC1
22[16.7 µM]	-5	C[C@H](CO)N1C[C@H](C)[C@@H](CN(C)Cc2ccc(F)cc2)Oc2cc(C#CC3CC3)ccc2S1(=O)=O
-24[16.7 µM]	-3	C[C@@H]1CN([C@H](C)CO)C(=O)c2cc(NC(=O)Cc3ccccc3)ccc2O[C@@H](C)CCCCO[C@@H]1CN(C)S(=O)(=O)c1ccccc1
4[16.7 µM]	3	Cc1ccc(-c2ccc3c(c2)O[C@H](CN(C)CC2CC2)[C@H](C)CN([C@@H](C)CO)S3(=O)=O)cc1
-10[16.7 µM]	-5	C[C@H]1CN([C@@H](C)CO)C(=O)c2cc(NC(=O)Cc3ccccc3)ccc2O[C@@H]1CN(C)Cc1ccncc1
-4[16.7 µM]	-8	C[C@@H]1CN([C@@H](C)CO)C(=O)c2cc(NC(=O)CCCN(C)C)ccc2O[C@H]1CN(C)Cc1ccccc1
19[16.7 µM]	0	CNC[C@@H]1Oc2ccc(NC(=O)Cc3ccccc3)cc2C(=O)N([C@H](C)CO)C[C@H]1C
1[16.7 µM]	4	COc1cccc(S(=O)(=O)N[C@H]2CC[C@H](CCNC(=O)Cc3ccncc3)O[C@@H]2CO)c1
6[16.7 µM]	1	CN1C(=O)c2cc(NS(=O)(=O)c3ccc(Cl)cc3)ccc2OC[C@H]2O[C@@H](CC(=O)N3CCc4ccccc4C3)CC[C@@H]21
10[16.7 µM]	17	CCC(=O)N(C)C[C@@H]1Oc2ncc(C#Cc3ccccc3OC)cc2C(=O)N([C@H](C)CO)C[C@@H]1C
-2[16.7 µM]	7	C/C=C/c1ccc2c(c1)O[C@H](CN(C)C(=O)Nc1ccc(F)cc1)[C@@H](C)CN([C@@H](C)CO)S2(=O)=O
-6[16.7 µM]	10	O=C(NCC[C@H]1CC[C@@H](NS(=O)(=O)Cc2ccccc2)[C@@H](CO)O1)C1CCCCC1

Reformatted as labelled records: four of the compounds above.
mol: C[C@H]1CN([C@@H](C)CO)C(=O)c2cc(NC(=O)Cc3ccccc3)ccc2O[C@@H]1CN(C)Cc1ccncc1
  HIV Env fusion = -10[16.7 µM]
  UUG fidelity = -5

mol: C[C@@H]1CN([C@@H](C)CO)C(=O)c2cc(NC(=O)CCCN(C)C)ccc2O[C@H]1CN(C)Cc1ccccc1
  HIV Env fusion = -4[16.7 µM]
  UUG fidelity = -8

mol: CNC[C@@H]1Oc2ccc(NC(=O)Cc3ccccc3)cc2C(=O)N([C@H](C)CO)C[C@H]1C
  HIV Env fusion = 19[16.7 µM]
  UUG fidelity = 0

mol: COc1cccc(S(=O)(=O)N[C@H]2CC[C@H](CCNC(=O)Cc3ccncc3)O[C@@H]2CO)c1
  HIV Env fusion = 1[16.7 µM]
  UUG fidelity = 4

Next results follow.
HIV Env fusion	UUG fidelity	compound
17[16.7 µM]	23	C[C@@H]1CCCCO[C@@H](CN(C)S(=O)(=O)c2ccc(F)cc2)[C@@H](C)CN([C@H](C)CO)C(=O)c2cc(NC(=O)CCCN(C)C)ccc2O1
1[16.7 µM]	6	C[C@@H]1CN([C@@H](C)CO)C(=O)c2cc(C3=CCCCC3)cnc2O[C@H]1CN(C)C(=O)c1ccccc1
9[16.7 µM]	12	O=C(NCC[C@@H]1CC[C@H](NC(=O)Nc2cc(F)ccc2F)[C@H](CO)O1)Nc1ccc(Cl)cc1
-10[16.7 µM]	-3	COc1cccc(S(=O)(=O)N2C[C@@H](O)COC[C@H]3O[C@H](CC(=O)NCCCN4CCOCC4)CC[C@@H]32)c1
-24[16.7 µM]	7	Cc1noc(C)c1S(=O)(=O)N(C)C[C@H]1Oc2ccc(NS(=O)(=O)c3ccccc3)cc2C(=O)N([C@H](C)CO)C[C@H]1C
-12[16.7 µM]	-18	C[C@@H](O)C#Cc1ccc2c(c1)O[C@H](CN(C)CC1CC1)[C@@H](C)CN([C@@H](C)CO)S2(=O)=O
12[16.7 µM]	-1	C[C@H](CO)N1C[C@H](C)[C@H](CN(C)S(C)(=O)=O)Oc2c(NC(=O)c3ccc(-c4nccs4)cc3)cccc2C1=O
3&7[16.7 µM]	7&0	C[C@H](CO)N1C[C@H](C)[C@H](CN(C)C(=O)NC2CCCC2)Oc2ncc(-c3ccccc3)cc2C1=O
-17[16.7 µM]	8	C[C@H](CO)N1C[C@H](C)[C@@H](CN(C)C(=O)NC2CCCCC2)Oc2ccc(NC(=O)CCN3CCOCC3)cc2CC1=O
16[16.7 µM]	3	CNC(=O)C[C@@H]1CC[C@@H]2[C@@H](COc3ccc(NC(=O)c4cc(C)on4)cc3C(=O)N2C)O1
26[16.7 µM]	8	Cc1ccc(S(=O)(=O)N(C)C[C@H]2OCCCC[C@@H](C)Oc3ccc(NC(=O)C4CCCCC4)cc3C(=O)N([C@H](C)CO)C[C@@H]2C)cc1
13[16.7 µM]	-14	Cc1noc(C)c1NC(=O)N(C)C[C@H]1Oc2c(NS(C)(=O)=O)cccc2C(=O)N([C@@H](C)CO)C[C@H]1C
3[16.7 µM]	15	COc1cccc(-c2ccc3c(c2)O[C@H](CN(C)C(=O)C2CCCCC2)[C@@H](C)CN([C@@H](C)CO)S3(=O)=O)c1
-1[16.7 µM]	1	CCCN(C)C[C@H]1OCCCC[C@@H](C)Oc2ccc(NS(=O)(=O)c3cccs3)cc2C(=O)N([C@@H](C)CO)C[C@@H]1C
4[16.7 µM]	0	C[C@@H]1CN([C@H](C)CO)C(=O)c2cc(Br)cnc2O[C@H]1CN(C)CC1CCCC1
8[16.7 µM]	16	C[C@H](CO)N1C[C@H](C)[C@@H](CN(C)CC2CCCCC2)OCCCC[C@H](C)Oc2ccc(NS(=O)(=O)c3ccc(Cl)cc3)cc2C1=O
-3[16.7 µM]	-2	C[C@@H]1CN([C@@H](C)CO)C(=O)c2cc(NS(=O)(=O)c3ccccc3)ccc2O[C@@H](C)CCCCO[C@H]1CN(C)Cc1ccc(C(=O)O)cc1
-11[16.7 µM]	-4	CN(C)Cc1cn(CC[C@H]2CC[C@H](NC(=O)Nc3ccc4c(c3)OCO4)[C@@H](CO)O2)nn1
11[16.7 µM]	5	C/C=C/c1ccc2c(c1)O[C@@H](CN(C)C(=O)Cc1ccncc1)[C@@H](C)CN([C@H](C)CO)S2(=O)=O
-14[16.7 µM]	23	Cc1ccccc1CN(C)C[C@@H]1OCc2cn(nn2)CCCC(=O)N([C@H](C)CO)C[C@H]1C
13[16.7 µM]	-12	C[C@@H]1CCCCO[C@@H](CN(C)S(=O)(=O)c2cn(C)cn2)[C@H](C)CN([C@@H](C)CO)C(=O)c2cc(NC(=O)c3ccncc3)ccc2O1
-7[16.7 µM]	-3	C[C@@H]1CN([C@@H](C)CO)C(=O)c2cccc(NS(=O)(=O)c3cn(C)cn3)c2O[C@H]1CN(C)Cc1ccc(C(F)(F)F)cc1
-16[16.7 µM]	24	C[C@@H]1CN([C@H](C)CO)C(=O)c2cc(NC(=O)c3ccccc3)ccc2O[C@@H](C)CCCCO[C@@H]1CN(C)C(=O)CCCN(C)C
-12[16.7 µM]	13	Cc1noc(C)c1NC(=O)Nc1cccc2c1O[C@H](CN(C)S(=O)(=O)c1ccc(Cl)cc1)[C@H](C)CN([C@H](C)CO)C2=O
-17[16.7 µM]	-5	O=C(C[C@@H]1C[C@H]2c3cc(NC(=O)CC4CC4)ccc3O[C@H]2[C@@H](CO)O1)NCCN1CCCCC1
31[16.7 µM]	13	C[C@@H]1CCCCO[C@@H](CN(C)Cc2ccc3c(c2)OCO3)[C@H](C)CN([C@@H](C)CO)C(=O)c2cc(NC(=O)Nc3ccccc3)ccc2O1
-6[16.7 µM]	-1	C[C@H]1CN([C@@H](C)CO)C(=O)c2cc(NS(=O)(=O)c3ccc(F)cc3)ccc2O[C@H]1CN(C)Cc1ccc(Oc2ccccc2)cc1
4[16.7 µM]	5	C[C@@H]1CN([C@H](C)CO)C(=O)c2cccc(NS(=O)(=O)c3cn(C)cn3)c2O[C@@H]1CN(C)C(=O)Nc1ccccc1
6[16.7 µM]	-3	C[C@H](CO)N1C[C@H](C)[C@@H](CN(C)Cc2ccc3c(c2)OCO3)Oc2ccc(NC(=O)NC3CCCCC3)cc2C1=O
-32[16.7 µM]	-3	C[C@@H]1CN([C@@H](C)CO)C(=O)c2cc(NC(=O)Nc3ccc4c(c3)OCO4)ccc2O[C@@H](C)CCCCO[C@@H]1CN(C)Cc1ccncc1
12[16.7 µM]	0	C[C@H](CO)N1C[C@H](C)[C@H](CN(C)S(=O)(=O)c2ccc(Cl)cc2)OCCCC[C@H](C)Oc2ccc(NC(=O)Nc3ccc(C(F)(F)F)cc3)cc2C1=O
10[16.7 µM]	2	C[C@@H]1CCCCO[C@@H](CN(C)C(=O)Nc2cccc3ccccc23)[C@@H](C)CN([C@H](C)CO)C(=O)c2cc(NC(=O)c3ccncc3)ccc2O1
-4[16.7 µM]	12	COCC#Cc1cnc2c(c1)C(=O)N([C@H](C)CO)C[C@@H](C)[C@@H](CN(C)C(=O)C1CCCCC1)O2
4[16.7 µM]	2	COCC(=O)Nc1ccc2c(c1)OC[C@H](C)N(C(C)=O)C[C@@H](C)[C@H](OC)CN(C)C2=O
-5[16.7 µM]	7	C[C@H](CO)N1C[C@H](C)[C@H](CN(C)Cc2ccc3c(c2)OCCO3)OCc2cn(nn2)CCCC1=O
6[16.7 µM]	8	COc1ccc(NC(=O)N(C)C[C@H]2Oc3ccc(NC(=O)Cc4cn(C)c5ccccc45)cc3C(=O)N([C@@H](C)CO)C[C@@H]2C)cc1
-65[16.7 µM]	32	Cc1ccc(S(=O)(=O)Nc2ccc3c(c2)C(=O)N([C@@H](C)CO)C[C@H](C)[C@@H](CN(C)Cc2ccc4c(c2)OCO4)OCCCC[C@@H](C)O3)cc1
66*[16.7 µM]	-15	COc1cccc(S(=O)(=O)N[C@H]2CC[C@H](CC(=O)NCc3ccncc3)O[C@@H]2CO)c1
